VDR inhibitor = inhibitors of human vitamin D receptor; 400,000 tested, 0.93% active; Potency, µM, for inactives: max response, negative = inhibition, usual class: inhibitors; VDR-SRC2-3 peptide fluorescence polarization, 2 h; P11473; active = well fitted inhibition curve with a large enough effect; inconclusive = small, poorly fitted or top-dose-only effect, or another doubt; inactive = no such curve, though single readings can be large or run the other way; also: series mostly up to about 120 µM
Target sequence (P11473 whole entry, looked up): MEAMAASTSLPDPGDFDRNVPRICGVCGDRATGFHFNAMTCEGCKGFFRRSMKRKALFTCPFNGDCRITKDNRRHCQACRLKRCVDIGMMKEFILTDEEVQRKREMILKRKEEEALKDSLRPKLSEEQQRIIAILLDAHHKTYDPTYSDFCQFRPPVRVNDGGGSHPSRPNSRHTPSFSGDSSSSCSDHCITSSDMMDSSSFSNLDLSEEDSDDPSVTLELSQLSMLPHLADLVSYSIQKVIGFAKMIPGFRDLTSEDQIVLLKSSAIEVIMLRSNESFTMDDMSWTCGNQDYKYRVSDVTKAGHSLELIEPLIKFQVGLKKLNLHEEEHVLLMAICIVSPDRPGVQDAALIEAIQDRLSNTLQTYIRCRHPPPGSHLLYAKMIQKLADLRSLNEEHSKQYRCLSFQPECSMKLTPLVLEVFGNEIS
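Fluorescence polarization assay of small-molecule disruption of VDR binding to coregulator peptide SRC2-3. Compounds and controls pin-transferred, then read after 2 h incubation at ambient room temperature.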
An asterisk follows results filed as active; ? = inconclusive; & = joins results of further samples. % is scaled to controls: 0 for no effect and ±100 for the full control effect; potency is read from the fitted curve at half-maximal effect.

Compound	VDR inhibitor
COc1cc(/C=C(\C(=O)O)c2ccc(S(=O)(=O)N3CCCC3)s2)ccc1OCCC(C)C	9%
Cc1nnc(SCc2ccccc2Cl)c2cc3occc3n12	3%
COc1ccc(Nc2ccc(S(=O)(=O)N3CCCCC3)cc2[N+](=O)[O-])cc1Cl	1%
Cc1cc(C=C2C(=O)CCCC2=O)c(C)n1-c1ccccc1	-12%
Cc1ccc(C(=O)COC(=O)CNC(=O)c2ccc(Br)o2)cc1[N+](=O)[O-]	-11%
CCCCNC(=O)CSc1nc2ccsc2c(=O)n1CCCC(=O)NCCc1ccc(S(N)(=O)=O)cc1	0%
O=C(NCc1cccs1)c1ccc2c(=O)n3nc(Nc4ccccc4)sc3nc2c1	19%
COc1ccc(CN2CCN(CCCc3ccccc3)C(CCO)C2)cc1OC (stereo not given)	-16%

Further compounds.
Compound	VDR inhibitor
CCOc1ccc(CCNC(=O)c2ccc(CS(=O)Cc3ccccc3Cl)o2)cc1 (stereo not given)	-15%
Cc1ccc(OCC(=O)NCC(c2ccc(Cl)cc2)N2CCCCC2)cc1 (stereo not given)	-1%
COc1cc([N+](=O)[O-])cc2sc(NC(C)=O)nc12	11%
CC1Nc2ncnc(N3CCN(c4ccccc4)CC3)c2N(Cc2ccc(Cl)cc2)C1=O (stereo not given)	-8%
COC(=O)C1=CNC=C(C(=O)OC)C1c1ccc(C(=O)OC)cc1	-4%
N#CCCN1CCN(S(=O)(=O)c2ccc(S(=O)(=O)N3CCCCCC3)cc2)CC1	-3%
COC(=O)c1ccc(Oc2nc(SC)nc(N(C)C)n2)cc1	8%
COc1cccc(CC2(CO)CCN(Cc3ccc4cccc(F)c4n3)CC2)c1	-3%

Additional compounds:
Compound	VDR inhibitor
COc1ccc(N2CC(C(=O)N[C@@H](C)C(=O)N3CCCCC3)CC2=O)cc1 (stereo not given in full)	-9%
O=C(CCc1nc2ccccc2c(=O)[nH]1)Nc1cc(C(F)(F)F)ccc1N1CCCC1	8%
COc1ccc(S(=O)(=O)N2CCN(CCO)CC2)cc1-c1nnc2c3ccccc3c(C)nn12	-11%
COc1ccc(OCc2nc3c4c(-c5ccc(OC)cc5)c(-c5ccc(OC)cc5)oc4ncn3n2)cc1	-29%
Cc1ccc(N(C(=O)C(F)(F)F)C(C(=O)NC2CCCCC2)c2cccs2)cc1C (stereo not given)	7%
COc1ccccc1Nc1nn2c(=O)c3ccc(C(=O)NC4CCCCC4)cc3nc2s1	4%
Cc1cc(C)nc(N2CCC(C(=O)Nc3nnc(C)s3)CC2)n1	5%
O=C(C1CCCN1S(=O)(=O)c1ccc(Br)cc1)N1CCOCC1 (stereo not given)	14%

Continued:
Compound	VDR inhibitor
CCOc1ccc(S(=O)(=O)Nc2cc3c(C(=O)OC)c(COC)oc3c3ccccc23)cc1	-8%
COc1ccc(CCNC(=O)c2ccc(Cl)c(S(=O)(=O)N(C)c3ccccc3)c2)cc1	?
NC(=O)COC(=O)c1sc2cc(F)ccc2c1Cl	-1%
O/N=C1\CCc2cc(Cl)ccc21	9%
Cc1ccc(C(=O)N2CCCC(c3nc4c(nnn4Cc4ccccc4)c(=O)[nH]3)C2)cc1 (stereo not given)	4%
Cc1nc(NCCN2CCOCC2)c2nnn(Cc3c(F)cccc3Cl)c2n1	26%
CC(C)OC(=O)CSc1nnc(C2CCCCC2)n1N	-21%
O=S(=O)(c1ccc(F)c(F)c1)N1CCN(S(=O)(=O)c2cccs2)CC1	3%

The list continues.
Compound	VDR inhibitor
CCOC(=O)c1cn(CC)c2cc(N3CCCCC3)c(F)cc2c1=O	-2%
COc1cc(CNC(=O)c2cnc(SC)nc2-c2ccccc2)cc(OC)c1OC	7%
CCSc1nc(-c2cccc(Cl)c2)nc2c1Cc1c(CO)cnc(C)c1O2	2%
Cc1cccc(NC(=O)C2CCCN(C(=O)Nc3ccc(F)cc3)C2)c1C (stereo not given)	2%
CN(C)S(=O)(=O)c1ccc(C(=O)NCCSc2c(-c3ccccc3)[nH]c3ccccc23)cc1	-11%
CCOC(=O)N1CCN(C(=O)COc2ccc(S(=O)(=O)NCc3ccccc3)cc2)CC1	7%
COC(=O)CC(c1ccc(C#N)cc1)n1c(C)ccc1C (stereo not given)	-10%
Cc1cccc(NC(=O)c2c(C)oc3ncn(CC(C)C)c(=O)c23)n1	13%

New compounds follow
Compound	VDR inhibitor
Cc1oc2ccc(O)c(CN3CCN(Cc4ccccc4)CC3)c2c1C(=O)Nc1ccccc1	3%
Fc1ccc(CNC(=S)Nc2ccccc2F)cc1	-4%
Cc1cccc(N2CCN(C(=O)c3cccc(S(=O)(=O)N4CCCCC4)c3)CC2)c1C	4%
COc1cc(C(c2sc3ncnn3c2O)N2CCN(c3ccccc3F)CC2)cc(OC)c1OC (stereo not given)	-4%
CCc1ccc(CN(C(=O)c2oc3ccccc3c2C)C2CCS(=O)(=O)C2)cc1 (stereo not given)	15%
CCCCOc1ccc(-c2nc(/C=N/c3nccs3)c(O)o2)cc1	-9%
COc1ccc(CCNc2ncnc3onc(-c4ccc(Cl)cc4)c23)c(OC)c1	6%
COc1cc(C(=S)N2CCOCC2)ccc1OC(=O)/C=C/c1ccco1	-15%

2 of the compounds above, with values ahead of the structure.
| VDR inhibitor | canonical_smiles |
| --- | --- |
| 15% | CCc1ccc(CN(C(=O)c2oc3ccccc3c2C)C2CCS(=O)(=O)C2)cc1 (stereo not given) |
| -4% | Fc1ccc(CNC(=S)Nc2ccccc2F)cc1 |

Continuation:
Compound	VDR inhibitor
CCOC(=O)c1cc(-c2ccccc2)n(CCCC(=O)Nc2ccc(CC)cc2)c1C	-11%
CC(C)(CNCC(O)c1ccccc1)N1CCOCC1 (stereo not given)	11%
O=C(CNC(=O)c1cccs1)OCC(=O)c1ccc(Cl)cc1	-5%
COc1ccccc1Nc1c2c(nc3ccc(NC(=O)c4ccccc4F)cc13)CCCC2	1%
Cc1cc(C)nc(SCC2COc3ccccc3O2)n1 (stereo not given)	-14%
CCOC(=O)c1ccc(NC(=O)NCCc2ccccc2OC)cc1	-23%
O=C(Nc1ccc2c(c1)OCO2)C1CCN(S(=O)(=O)Cc2ccccc2)CC1	5%
Cc1c(-c2ccccc2)nc2ccccc2c1C(=O)NCc1cccs1	-14%

The listing continues:
Compound	VDR inhibitor
O=C(CSc1nnc2ccccn12)NC(=O)c1ccccc1	3%
CCc1ccc(Nc2nnc(SCC(=O)NC(=O)CN3CCCC3=O)s2)cc1	-7%
O=C(COC(=O)C1CC2CCCC(C1)C2=O)Nc1ccc(F)c(Cl)c1 (stereo not given)	-3%
CC(C(=O)Nc1ccncc1)(c1ccccc1)c1ccccc1	-10%
Cc1ccc(C)n1-c1nnc(N2CCCC(C(=O)NCc3cccc(Br)c3)C2)s1 (stereo not given)	11%
O=C(CCc1nnc(Cc2ccc(-c3ccccc3)cc2)o1)NCC1CC1	6%
CCC(=O)n1nc(-c2ccc(OC)cc2)nc1NCc1cccs1	3%
Cc1cccc(C)c1NC(=O)CS(=O)CC(=O)Nc1ccc(N2CCOCC2)cc1 (stereo not given)	4%

(list continues)
Compound	VDR inhibitor
Cc1csc(NC(=O)CSc2nc3ccccc3c3c2CCCC3)n1	-4%
CCOc1ccc(NC(=O)CN(C)C(=O)CCCOc2ccc(Br)cc2)cc1OCC	-3%
Cc1ccc(CN2C(=O)C(=O)c3cc(C)ccc32)cc1	?
CS(=O)(=O)N(Cc1ccccc1)c1ccccc1C(=O)O	7%
CCOC(=O)COc1cccc2c(=O)n(CC(=O)NCc3ccc(F)cc3)ccc12	-15%
O=C(Cc1ccc(Br)cc1)NCCN1CCOCC1	-18%
COC(=O)c1cc(S(=O)(=O)NCC2CCN(Cc3cc(C)ccc3C)CC2)c[nH]1	1%&9%
Cc1ccc(NC(=O)CN2C(=O)C3C4C=CC(C4)C3C2=O)cc1 (stereo not given)	-29%

(further entries)
Compound	VDR inhibitor
CCC1=NN(C(=O)c2ccc(Br)cc2)C(O)(c2ccc(C)cc2)C1 (stereo not given)	-11%
CCOC(=O)c1nn(-c2ccccc2C)c2nc(-c3ccc(Cl)cc3)c(C#N)c(=O)n12	-1%
O=C(/C=C/c1ccccc1)NCCN1CCOCC1	-21%
C=CC[C@@H](CC(=O)NCCO)C(=O)N[C@@H](COC(=O)[C@@H](CC=C)Cc1ccc(F)cc1)Cc1ccccc1	-26%
COC(=O)c1cc(C(=O)c2ccc(Cl)cc2)n2c(=O)/c(=C\N(C)C)sc12	13%
O=C(c1ccccc1)N1CCCC(C(=O)N2CCCCC2)C1 (stereo not given)	3%
COc1ccc(-c2nc3ccccc3s2)cc1NC(=O)c1cc(OC)c(OC)c(OC)c1	-9%
Cc1ccc(CNC(=O)CS(=O)Cc2nc(-c3cccs3)oc2C)cc1 (stereo not given)	?

Carrying on.
Compound	VDR inhibitor
Cc1ccc(S(=O)(=O)N2CCN(Cc3ccco3)CC2)c(C)c1	-8%
COCCN1C(=O)/C(=C/c2cc3c(cc2Br)OCO3)NC1=S	11%
O=C(c1ccc2c(c1)CCN2S(=O)(=O)c1ccc(Cl)cc1)N1CCN(c2ccccc2F)CC1	5%
COc1cc2oc(-c3ccc(O)cc3)cc(=O)c2c(OC)c1O	-6%
CCn1c(SCC(=O)Nc2ccccc2Br)nnc1-c1cnccn1	-23%
Cc1nc2sccn2c(=O)c1Br	-7%
COc1ccc(NC(=O)CN(c2ccc(C(C)C)cc2)S(=O)(=O)c2c(C)noc2C)cc1OC	-19%
CCCCC(CC)CNC(=O)C1CCCN(S(=O)(=O)c2cnc[nH]2)C1 (stereo not given)	1%

Carrying on:
Compound	VDR inhibitor
C=CC[C@@H](CC(=O)N[C@@H](CO)Cc1ccccc1)C(=O)N[C@H](COC(=O)[C@@H](CC=C)CC(=O)OC(C)(C)C)Cc1ccccc1	-15%
Cc1cc(NC(=O)CSc2nc3c(c(=O)n2-c2ccc(Br)cc2)SCC3)no1	5%
CCc1c(C)sc(NC(=O)c2cccs2)c1C#N	-9%
O=C(CSc1nc2cc(Cl)ccc2o1)c1cccs1	7%
O=C(OCC(CO)OC(CO)n1ccc(=O)[nH]c1=O)c1ccccc1 (stereo not given)	-5%
O=C(CCN1C(=O)c2ccccc2C1=O)N1CCC(c2ccccc2)C1 (stereo not given)	-13%
Cc1cc(C2=NNC(=NC3CC3)SC2)c(C)n1-c1c(C)n(C)n(-c2ccccc2)c1=O	-3%
Cc1nn(C)cc1S(=O)(=O)Nc1ccc2c(c1)OCCO2	-2%

Next records.
Compound	VDR inhibitor
Cc1ccc(C(=O)NC(=S)Nc2cccc3nsnc23)cc1	-16%
CCNC(=O)c1ccc(C)c(-n2c(C)nc3cccnc32)c1	16%
Cc1ccc(C(=O)N(Cc2ccc(N(C)C)cc2)Cc2ccco2)cc1	17%
COC(=O)c1cc(S(=O)(=O)NCCN2CCOCC2)cn1C	10%
NC(=O)CN1C(=O)C2(SCC(=O)N2c2cccc(F)c2)c2ccccc21 (stereo not given)	-1%
Cc1nc(-c2ccc(F)cc2)c(CC(=O)Nc2cccc(S(=O)(=O)N3CCOCC3)c2)s1	-23%
CCCCc1ccc(NS(=O)(=O)c2cc3c4c(c2)CC(=O)N4CCC3)cc1	18%
Nc1nnc(SCCCC(=O)c2ccccc2)s1	28%

Continued.
Compound	VDR inhibitor
CCN1CCCC1CNC(=O)Cn1nc(C)n2c(cc3cc(F)ccc32)c1=O (stereo not given)	-9%
CCOC(=O)c1cc(-c2ccccc2)sc1NC(=O)C(C)C	?
COc1ccc(Nc2nc3ccccc3n3c(N)nnc23)cc1	-1%
CC(C)Cc1nc(SCC(=O)NCC2CCCO2)c2c(=O)n(C)c(=O)n(C)c2n1 (stereo not given)	0%
COC(=O)c1ccc(=O)c2nc3/c(=C/O)c(O)cc(=O)c3[nH]c12	-11%
CC(C)(C)n1ncc2c(=O)n(CC(=O)N3CCCC3)cnc21	-4%
O=[N+]([O-])c1cccc(COc2ccc(CN3CCCCC3)cc2)c1	7%
CCc1ccc2oc(-c3ccc(C)c(NC(=O)Cc4ccccc4)c3)nc2c1	-1%

Continuation:
Compound	VDR inhibitor
CCOc1ccc(-c2nc(CSCC(=O)NCCCN3CCCC3=O)c(C)o2)cc1	1%
Cc1ccccc1OCCCC(=O)Nc1ccc(N2CCOCC2)cc1	-7%
O=C(Cn1ncc(Cl)c(Cl)c1=O)N1CCOCC1	-10%
Cc1cc(NC(=O)CSc2nnc(-c3ccccc3)o2)no1	0%
COc1ccc(C(=O)NCCCn2ccnc2)cc1	7%
O=C1CCCc2nn(-c3ccccc3)c(-c3ccncc3)c21	15%
O=C(CN1CCOCC1)Nc1nc(-c2ccccc2Cl)cs1	20%
O=C(Nc1ccccc1)N1CCC2(CC1)CCN(C(=O)c1csnn1)CC2	-2%

Part of the list above in order of SMILES length, smallest number first.
Compound	VDR inhibitor
O=C(/C=C/c1ccccc1)NCCN1CCOCC1	-21%
COc1ccc(Nc2nc3ccccc3n3c(N)nnc23)cc1	-1%
Cc1ccc(CN2C(=O)C(=O)c3cc(C)ccc32)cc1	?
CCOc1ccc(NC(=O)CN(C)C(=O)CCCOc2ccc(Br)cc2)cc1OCC	-3%
Cc1cccc(C)c1NC(=O)CS(=O)CC(=O)Nc1ccc(N2CCOCC2)cc1 (stereo not given)	4%
Cc1cc(NC(=O)CSc2nc3c(c(=O)n2-c2ccc(Br)cc2)SCC3)no1	5%
CN(C)S(=O)(=O)c1ccc(C(=O)NCCSc2c(-c3ccccc3)[nH]c3ccccc23)cc1	-11%

The list goes on.
Compound	VDR inhibitor
CCCc1nnc(NC(=O)c2c(O)c3cccc4c3n(c2=O)CC4)s1	-7%
O=C(NNC(=O)C1CCN(S(=O)(=O)c2ccc(Cl)cc2)CC1)c1ccccc1	5%
O=C(CSc1ccc2ccccc2n1)NCCCN1CCCC1=O	-6%
COc1ccc(NC(=O)c2ccc(-c3csc(C)n3)cc2)cc1	-6%
COc1ccc(CN(Cc2nc3ccccc3c(=O)[nH]2)C(=O)C(C)(C)C)cc1	2%
CC(C)(C)NC(=O)COC(=O)c1nsc(Cl)c1Cl	-20%

A portion of the library; rates above refer to the full screens.
